# Compound activity (PubChem BioAssay)
# VACV mCherry inh: inhibitors of vaccinia virus infection (mCherry reporter signal). Vaccinia virus mCherry reporter infection, fluorescence; about a quarter of the inactives have no number. Potency, µM (titrated, usually from 36.5 µM), for the others: at the top dose activity change, negative = inhibition, usual class: inhibitors. 310,000 tested, 0.63% active; active = well fitted inhibition curve with a large enough effect; inconclusive = small, poorly fitted or top-dose-only effect; inactive = no such curve, though single readings can be large or run the other way; tested in A549 cells; further: nearly all actives have a fitted effect of over 35% in size; inactives centre near -10
# Vaccinia Venus: vaccinia inhibition (Venus reporter). 330,000 tested, 0.46% active. Vaccinia virus Venus reporter expression, fluorescence. Potency, µM (titrated, usually from 36.5 µM), without a hit: top-dose activity change, negative = inhibition, hits mostly inhibitors; active means well fitted inhibition curve with a large enough effect; inconclusive means small, poorly fitted or top-dose-only effect; inactive means no such curve, though single readings can be large or run the other way; tested in A549 cells; further: nearly all actives have a fitted effect of over 30% in size; inactives centre near -10
# * = called active by the depositor; i = inactive; ? = inconclusive; · = not tested or not shown; & = joins results of further samples; [ ] = another dose, or the depositor's remark. On the % scale 0 is the no-effect control and ±100 the full control effect; potency means the concentration at half of the fitted maximal effect.
SMILES,VACV mCherry inh,Vaccinia Venus
COCC(C)NC(=O)C1CC(=O)N(CCc2ccc(F)cc2)C1 (stereo unspecified),-1%,-10%
CCOc1ccc(N2C(=O)CC(Sc3nc(-c4cccs4)cc(C(F)(F)F)c3C#N)C2=O)cc1 (stereo unspecified),·,-2%
O=C(/C=C/c1cccc([N+](=O)[O-])c1)N1CCN(c2ccccc2F)CC1,-13%,-10%
CC(C(=O)Nc1ccccn1)N1C(=O)c2ccccc2S1(=O)=O (stereo unspecified),-5%,-2%
O=C(c1ccc(Cl)cc1)N1CCc2c([nH]c3ccccc23)C1C(F)(F)F (stereo unspecified),i,-27%
CCN1CCN(c2cc(C)c3cc(NC(=O)c4ccc(OC)c(OC)c4)ccc3n2)CC1,?,-13%&-15%
Cc1ccc([C@@H]2[C@@H]3C(=O)N(C)C(=O)[C@@H]3[C@]3(C)C(=O)N(Cc4ccccc4)CC(=O)N23)o1,-12%,-11%
CC(=O)OCC(=O)C1(O)CCC2C3CC(C)C4=CC(=O)C=CC4(C)C3(F)C(O)CC21C (stereo unspecified),i,0%
O=C(NNC(=O)C1CC=CCC1)c1ccccc1Br (stereo unspecified),-16%,-5%
CC(C)c1ccc(NC(=O)CCNS(=O)(=O)c2cccc3nsnc23)cc1,-13%&-21%,-16%&-17%
Cc1ccccc1OCC(=O)Nc1nnc(S(=O)(=O)N(C)c2ccccc2)s1,-7%,-4%
O=C(NCCCN1CCCC1=O)c1cccc(S(=O)(=O)N2CCN(c3ccc(F)cc3)CC2)c1,0%,-17%
O=C(CN(C(=O)CCC(=O)Nc1ccccn1)c1cccc(F)c1)NCc1ccc(F)cc1,-20%,-5%
O=S1(=O)NC(C2CC2c2ccccc2)CCO1 (stereo unspecified),-7%,-17%
Cc1cc(-c2nnc(SCC(=O)Nc3ccccc3C)n2N)n[nH]1,-19%,-19%
CCOc1ccc2ccccc2c1C(=O)Nc1cc(=O)n(C)c(=O)n1C,i,-8%
CN(C)C(Cc1ccc(Cl)cc1)C(=O)c1ccccc1 (stereo unspecified),i,7%
COC(=O)c1cc(C)nc2c1c(=O)nc(SCc1cccc(C)c1)n2C1CC1,-2%,-10%
CC(C)c1ccc(NC(=O)C2CCCN(S(=O)(=O)c3cnc[nH]3)C2)cc1 (stereo unspecified),2%,-3%
Cc1nc(-c2ccccc2)nc(Cl)c1Cl,i,-3%
O=c1[nH]c(/C(Cl)=C/c2cccc(F)c2)nc2cc(C(F)(F)F)ccc12,8%,-7%
O=C(c1ccco1)N1CCN(c2ncnc3c2nnn3Cc2ccccc2Cl)CC1,-11%,-29%
CC1(C)CC2CC(C)(CN2S(=O)(=O)c2ccc(C(=O)Nc3cc(S(=O)(=O)N4CCOCC4)ccc3Cl)cc2)C1 (stereo unspecified),i,-18%
Cc1cc(=O)[nH]c2cc(N)ccc12,-13%,-9%
Cn1c(N/N=C/c2ccccc2)nc2sc3c(c2c1=O)CCC3,·,-6%
CCCCC(=O)N/N=C/c1c(O)n(Cc2ccc(F)cc2)c(=O)[nH]c1=O,-11%,-4%
CC(=O)Oc1cc(-c2coc3cc(OC(C)=O)c(OC(C)=O)c(OC(C)=O)c3c2=O)cc(OC(C)=O)c1OC(C)=O,-17%,-3%
COc1ccc(CCn2c3c(c(=O)[nH]c2=O)C(NC(=O)c2ccccc2)(C(F)(F)F)C(=O)N3)cc1OC (stereo unspecified),-5%,4%
CCC1(CC)Cc2ccccc2-c2nc(-c3ccccc3)oc(=O)c21,-10%,21%
COc1ccc(Cl)cc1-c1cc(C(=O)NCc2ccc(C(F)(F)F)cc2)[nH]n1,i,-12%
COCCNC(=O)N1[C@H]2CC[C@@H]1C(C(=O)OC)=C(c1ccc(-c3ccccc3)c(F)c1)C2,?,?
Cc1ccc(CNC(=O)COCc2cc(-c3cccs3)on2)cc1,-15%,-11%
C=CCOC(=O)CSCC(NC(=O)OC(C)(C)C)C(=O)OCC (stereo unspecified),·,-7%
CC(C)c1ccc(N(C(=O)c2snc(C(N)=O)c2N)C(C(=O)NC2CCCC2)c2ccncc2)cc1 (stereo unspecified),-30%,-16%
COc1cc(NS(=O)(=O)c2cn(C)cn2)cc(OC)c1OC,i,-8%
CCOc1ccc(N2C(=O)c3ccc(C(=O)OCC(=O)N(CC)C4CCS(=O)(=O)C4)cc3C2=O)cc1 (stereo unspecified),i,-8%
Cc1cc(Cl)ccc1OCC(=O)N[C@@H](Cc1ccccc1)c1nc2ccccc2[nH]1,-3%,?
Cc1ccc(CNC(=O)C2CCN(C(=O)Nc3ccc(C)cc3)CC2)cc1,-13%,-12%
CCOc1ccccc1OCCCC(=O)Nc1nc2ccccc2[nH]1,-5%,-2%
COCCNC(=O)c1ccc(C)cc1C,-5%,-1%
CCOC(=O)C1CCN(C(=O)c2cc3ccc4cccnc4c3[nH]2)CC1,i,-11%
C=CCC1(CC=C)CCCN1C(=O)c1cc(COc2ccccc2SC)on1,-14%,-1%
Brc1cc2c(cc1CN1CCN(c3ccccc3)CC1)OCCO2,?,5%
COc1ccccc1NC(=O)CCN1CCCCC1,3%,2%
CN1CCCN(C(=O)CNC(=O)Cc2ccccc2)CC1,i,-16%
Clc1ccc(-c2nc(-c3ccccn3)no2)cc1Cl,-1%,-7%
CCOC(=O)c1[nH]c2ccc(OC)cc2c1NC(=O)c1ccccc1C(=O)O,-2%,-10%
CC(C)(CO)NCc1cc(Br)ccc1OCc1ccccc1,-10%,-16%
CC(=O)NC1=NN(C(C)=O)C(C)(c2ccc(C)cc2)S1 (stereo unspecified),i,-18%
CCN(Cc1ccncc1)Cc1ccc2c(c1)CN(C(=O)c1ccccc1-n1cccn1)CCO2,-6%,0%
CCOC(=O)C1=C(COC(=O)/C=C/c2ccccc2)NC(=O)NC1C (stereo unspecified),-13%,-14%
O=c1c(C=NCCCn2ccnc2)c(-c2ccccc2)[nH]n1-c1nc2ccccc2s1,-10%,-7%
O=C(NCC(c1cccnc1)N1CCc2ccccc21)c1ccc(Cl)cc1 (stereo unspecified),-21%,?
NNC(=O)C(Cc1ccccc1)NC(=O)OCc1ccccc1 (stereo unspecified),-16%,-5%
Cc1ccc2oc(=O)cc(/C=C/c3ccccc3)c2c1,-7%,-10%
Cn1cccc1/C=N/NC(=O)c1ccc(OC(F)(F)C(F)F)cc1,-3%,-7%
Cc1nc2c(-c3ccccc3)c(C)nn2c(C)c1CCC(=O)N1CCN(c2ccccc2)CC1,-8%,-2%
C[C@H]1CN([C@@H](C)CO)C(=O)Cc2cc(NC(=O)CCC(F)(F)F)ccc2O[C@H]1CN(C)S(C)(=O)=O,i,-3%
COC(=O)c1cc(OC)c(OC)cc1NC(=O)c1ccc(OC)cc1,·,-1%
COCCOC(=O)c1c(NC(=O)CN2c3ccccc3CC2C)sc(C(N)=O)c1C (stereo unspecified),-21%,-10%

# 2 consecutive compounds already listed, for reference:
SMILES,VACV mCherry inh,Vaccinia Venus
COC(=O)c1cc(OC)c(OC)cc1NC(=O)c1ccc(OC)cc1,·,-1%
COCCOC(=O)c1c(NC(=O)CN2c3ccccc3CC2C)sc(C(N)=O)c1C (stereo unspecified),-21%,-10%

# Continued:
SMILES,VACV mCherry inh,Vaccinia Venus
Cc1ccc(Oc2ccc(C(F)(F)F)cc2[N+](=O)[O-])c([N+](=O)[O-])n1,?,-11%
NP(=O)(OCCCc1ccccc1)Oc1ccccc1Cl (stereo unspecified),i,-11%
CCCN(CCC)C(=O)c1cc2c(=O)n3cccc(C)c3nc2s1,-4%&-13%,5%&-10%
COc1ccc(/C=C/c2ccc3ccccc3[n+]2C)cc1OC,-16%,?
COCCN(C(=O)Nc1ccc(OC)cc1)c1nc2ccccc2s1,-26%,-4%
COc1ccc(/C(C)=N/NC(=O)CNC(=O)c2ccco2)c(OC)c1,i,-8%
CCN(CC)C(=O)COc1ccc(/C=N/NC(=O)c2cc(-c3ccccc3OC)nc3ccccc23)cc1OC,i,-15%
COc1cc2c(cc1OC)C(COc1ccc3c(C)cc(=O)oc3c1)N(C(=O)c1ccc(C)cc1)CC2 (stereo unspecified),i,-2%
CN1C(=O)C(C)(C)c2cc(S(=O)(=O)N3CCCCCC3)ccc21,-3%,-8%
O=C(Cn1cnc2cc([N+](=O)[O-])ccc2c1=O)N1CCN(S(=O)(=O)c2ccccc2)CC1,i,2%
CCc1ccc(NC(=O)Cn2c(=O)n(-c3ccccc3)c(=O)c3ccc(C(=O)NCc4ccc5c(c4)OCO5)cc32)cc1,-19%,-21%
COc1ccc(Nc2nc3ccccc3n3cnnc23)cc1Cl,-3%,-14%
CCCS(=O)(=O)NC(=O)C1(C)CCCN(C(=O)c2cc(OC)ccc2Br)C1 (stereo unspecified),6%,-8%
COc1ccc(OC)c(S(=O)(=O)NCCc2sc(-c3cccnc3)nc2C)c1,-11%,-11%
Cc1ccccc1Nc1nnc(SCC(=O)N(C)C2CCS(=O)(=O)C2)s1 (stereo unspecified),-12%,-10%
COC(C[C@@H](O)C[C@@H](O)[C@H](C)OCc1ccccc1)OC,i,-7%
O=C(CNC(=O)c1ccc(Br)o1)NCc1ccc(Cl)cc1,-26%,-27%
CCOc1ccc(NC(=O)CN2CCN(CC(=O)Nc3ccccc3OCC)CC2)cc1,-8%,-20%
O=C(NC(=S)Nc1nc(-c2ccccc2)cs1)c1cncc(Br)c1,?,?
O=C(Nc1ccccc1)O/N=C/c1ccncc1,·,-10%
O=C(Nc1cccc(Cl)c1)N1Cc2ccccc2Oc2ncccc21,-2%,-7%
O=NN(C(=O)NC1CCC(C(=O)O)CC1)C1CCC(C(=O)O)CC1 (stereo unspecified),37%[activator],11%
CN(c1ccccc1)c1nc(C#N)nc(N2CCOCC2)n1,-15%,-28%
O=C(c1ccc(N2C(=O)CCC2=O)cc1)N1CCCSC1=Nc1ccccc1,-8%,-13%
CCc1cccc2c(C(=O)C(NCCOC)c3ccccc3)c[nH]c12 (stereo unspecified),?,-8%
Cc1cccc(CC(=O)NC2CC(=O)N(c3ccc4c(c3)OCCO4)C2)c1 (stereo unspecified),-18%,-6%
COc1ccc2oc(C(=O)c3ccccc3)c(NC(=O)CN3CCN(C)CC3)c2c1,-19%,-10%
FC(F)(F)c1ccccc1C1=CC(c2ccccc2)n2ncnc2N1 (stereo unspecified),7%,-13%
CCOC(=O)Nc1ccc2c(c1)N(C(=O)N(CC)CC)c1ccccc1CC2,i,-17%
CCOc1cc(/C=N/O)cc(Cl)c1OC,·,-11%

# Some values from the entries so far:
# VACV mCherry inh result of `O=C(NNC(=O)C1CC=CCC1)c1ccccc1Br` (stereo unspecified) is entered as -16%
# VACV mCherry inh result of `Cc1ccccc1Nc1nnc(SCC(=O)N(C)C2CCS(=O)(=O)C2)s1` (stereo unspecified) is entered as -12%

# Further structures
SMILES,VACV mCherry inh,Vaccinia Venus
CC1CCCC(C)N1/N=C/c1ccccc1OC(F)F (stereo unspecified),i,-11%
C=CCN1C(=O)/C(=C/c2ccc(OC(C)=O)c(OCC)c2[N+](=O)[O-])SC1=S,i,77%[activator]
Cc1cccc(NC(=O)CCNS(=O)(=O)c2cccc3nsnc23)c1C,-8%,-9%&-7%
CCOc1cc(CN2CCN(c3ccc(C(C)=O)cc3)CC2)ccc1OC,-24%,-17%
Cc1ccc(NC(=O)c2cccc3c2C(=O)N(C2CCCCC2)C3)c(C)c1,-8%,-8%
C=CCn1c(SCC(=O)Nc2nnc(CC)s2)nnc1-c1ccco1,-9%,-3%
COc1ccc(CN2CCN(Cc3ccon3)CC2CCO)c(C)c1C (stereo unspecified),i[7.34 µM],-13%[7.34 µM]
C=C(C)C1CC=C(C)/C(=N\NC(=O)CCc2ccccc2)C1 (stereo unspecified),0%,-20%
c1ccc(-c2cc3nc(NCc4ccc5c(c4)OCO5)ccn3n2)cc1,8%,0%
COCCNC(=O)CCCN1C(=O)c2ccccc2Sc2ncccc21,-6%,-4%
COc1ccccc1/C=C/C(=O)NCC(=O)n1nc(C)cc1C,i,16%
CC(=O)c1cccc(NC(=O)c2csc3c2CCCCC3)c1,-8%,0%
COc1ccccc1-c1cncnc1NCCN1CCOCC1,10%,15%
Cc1nnc(SCC(=O)Nc2ncc3c(n2)CCCC3=O)s1,·,13%
C=C(C)Cn1c(SCC(=O)N/N=C/c2cccc(O)c2)nc2ccccc2c1=O,-20%,-21%
Nc1ccc(C(=O)Oc2ccc([N+](=O)[O-])cc2)cc1,-6%,-26%
O=C1CC(C(=O)O)C(c2ccccc2)c2ccccc21 (stereo unspecified),-4%,-5%
COc1ccccc1NS(=O)(=O)c1cc(NC(=O)COc2ccccc2F)ccc1N1CCOCC1,-6%,-9%
COc1ccc2c(c1)c1c(n2C(C)=O)C(OC(C)=O)=NCC1,i,-28%
O=C(Nc1nc(-c2ccc(Cl)cc2)cs1)NC1CCCCC1,?,?

# Some of the entries so far, bar-delimited:
molecule | VACV mCherry inh | Vaccinia Venus
O=C1CC(C(=O)O)C(c2ccccc2)c2ccccc21 (stereo unspecified) | -4% | -5%
COc1ccccc1NS(=O)(=O)c1cc(NC(=O)COc2ccccc2F)ccc1N1CCOCC1 | -6% | -9%
COc1ccc2c(c1)c1c(n2C(C)=O)C(OC(C)=O)=NCC1 | i | -28%
O=C(Nc1nc(-c2ccc(Cl)cc2)cs1)NC1CCCCC1 | ? | ?
